Screens from PubChem.
miR-21 reporter = qHTS Assay for Modulators of miRNAs and/orActivators of miR-21; Potency, µM (doses to about 38.3 µM), inactives show at the top dose reporter change, positive = more light; 340,000 tested, under 10 active; HeLa miR-21 FLuc reporter, luciferase, 48 h; active = well fitted rising curve with a large enough effect; inconclusive = small, poorly fitted or top-dose-only effect; inactive = no such curve, though single readings can be large or run the other way;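 note: % of control where 0% means no effect; miR-21 action dims this reporter so a rising signal means less miR-21 action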
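Luminescence from a firefly luciferase reporter carrying a miR-21 binding site downstream, stably expressed under a CMV promoter in HeLa cells that make miR-21 endogenously, reports miRNA modulation after 48 h compound exposure up to approximately 40uM final.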
Rango-impB inh = qHTS Assay for Inhibitors of Rango (Ran-regulated importin-beta cargo) - Importin beta complex formation; Importin subunit beta-1 (Homo sapiens), Q14974; Rango CFP/YFP FRET sensor + importin beta, 45 min; Potency, µM (highest dose often 92.2 µM), without a hit: at the highest dose inhibition of complex formation; hit rate 0.031% among 340,000; active = rising FRET ratio curve, often small or poorly fitted; inconclusive = mostly compound fluorescence or quenching in the first reads; inactive = flat curves in all reads;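 note: potency is the fitted concentration of half-maximal effect; 0% = DMSO wells and 100% = buffer wells lacking importin beta; nearly all actives have a fitted effect of over 15% in size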
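Inhibition scored from the CFP 486 nm/YFP 530 nm FRET ratio 45 min after adding 0.125 microM importin beta to 50 nM Rango biosensor preincubated 5 min with compound (room temperature, PBS with DTT, Tween-20, BSA). No-importin wells as positive control.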
Rango release inh = qHTS Assay for Inhibitors of RanGTP induced Rango (Ran-regulated importin-beta cargo) - Importin beta complex dissociation; Potency, µM (series often up to 46.1 µM), without a hit: at the top dose activity change, negative = inhibition; AID 540253, 2011; hit rate 0.071% among 340,000; Biochemical FRET Rango-importin beta, RanGTP-induced dissociation; active means falling FRET ratio curve, often poorly fitted, with flat reads before Ran was added; inconclusive means other falling curves, or compound fluorescence or quenching; inactive means flat or rising ratio curve;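 note: potency is the fitted concentration of half-maximal effect; % of control where 0% means no effect; nearly all actives have a fitted effect of over 45% in size; -100% = wells without RanGTP and RCC1; the record marks most hits as doubtful in a second field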
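Rango/importin beta premix (0.1/0.25 uM final), PBS + 1 mM DTT + 0.02% Tween-20 + 0.1% BSA; cpd 5 min RT; FRET pre-read; + RanGTP-RCC1 (0.6 uM Ran, 2 mM GTP, 0.2 uM RCC1); 45 min RT; FRET post-read, ex 430, em 486/530 nm.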
GLA inh pH 4.5 = qHTS Assay for Inhibitors of Human alpha-Galactosidase at pH 4.5 | Alpha-galactosidase A (Homo sapiens), P06280 | purified enzyme, 4-MU-alpha-Gal fluorescence, pH 4.5 | activity change, negative = inhibition, % at 105 µM | 230,000 tested, under 10 active | AID 1467, 2008; inconclusive = small, poorly fitted or top-dose-only inhibition, or a rising curve; inactive = flat fitted curve, though single readings scatter; no compound was filed as active;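 note: 0% = full activity with enzyme and -100% = basal without enzyme; dose as in the result columns while the protocol names 77 µM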
Target sequence (P06280 whole entry, looked up): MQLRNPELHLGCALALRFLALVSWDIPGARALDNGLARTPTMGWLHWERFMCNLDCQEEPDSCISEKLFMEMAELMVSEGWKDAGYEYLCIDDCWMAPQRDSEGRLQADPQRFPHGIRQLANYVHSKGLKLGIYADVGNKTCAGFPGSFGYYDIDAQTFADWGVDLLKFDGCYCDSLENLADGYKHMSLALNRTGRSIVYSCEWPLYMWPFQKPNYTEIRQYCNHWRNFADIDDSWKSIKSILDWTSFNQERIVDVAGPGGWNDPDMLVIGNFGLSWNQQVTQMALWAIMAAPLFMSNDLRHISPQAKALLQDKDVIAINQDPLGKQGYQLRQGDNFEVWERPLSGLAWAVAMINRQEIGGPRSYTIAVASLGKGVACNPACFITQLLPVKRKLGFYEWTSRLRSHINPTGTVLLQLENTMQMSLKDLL
* = called active by the depositor; ? = inconclusive; nt = not tested or not shown; & = joins results of further samples. These rows are one share of the data (hit frequency here may not be typical).

miR-21 reporter,Rango-impB inh,Rango release inh,GLA inh pH 4.5,structure
-15%,1.7%,3%,8,O=Cc1cn(-c2ccccc2)nc1-c1cccnc1
-8%,-1.0%,-5%,-7,CCc1nc(N=Nc2c(O)[nH]c3ccccc23)c2c3c(sc2n1)CCC3
4%,0.9%,0%,-2,O=C(CCC(=O)N1CCN(c2ccc(F)cc2)CC1)c1ccc(F)cc1
-5%,?,-12%,-5,NS(=O)(=O)c1ccc(-c2ccc(C=NC3CCS(=O)(=O)C3)o2)cc1 (configuration not stated)
-21%,-2.0%,1%,7,O=C(Nc1ccccc1Cl)N1CCN(c2ccccn2)CC1
-35%,0.3%,2%,-2,Cc1cc(C)n2nc(SCc3ccccc3)nc2n1
-5%,0.0%,-8%,14,Cc1oc2ccc(OCc3ccccc3F)cc2c1C(=O)O
-25%,0.5%,1%,9,O=C(NNC(=S)NC1CCCCC1)c1cccs1
-15%,3.8%,5%,2,COCCN(C(=S)Nc1ccc(OC)c(Cl)c1)C1CCN(C(C)C)CC1
-4%,0.0%,-14%,6,COc1ccc2nc(Nc3nc(-c4cc5ccccc5oc4=O)cs3)sc2c1
-5%,?,1%,2,CCOc1ccc(N2C(=O)CC(NCc3ccc(F)cc3)C2=O)cc1 (configuration not stated)
-6%,2.0%,7%,-3,Cc1cccc(NC(=S)NC2CC3CCCC(C2)N3CC(C)C)c1C (configuration not stated)
nt,-1.7%,4%,nt,CCNc1nc(C)nc2c1cnn2C
14%,-0.5%,-7%,-6&-3,CCC1=C(OC(=O)N(CC)CC)N2C(=O)OC(=NCC3CC3)[C@]2(Cc2ccccc2)[C@H]2C1=CC[C@H]1C(=O)N(CC(=O)OC)C(=O)[C@H]12
2%,-2.1%,23%,5,CC(OC(=O)C1CC1)C(=O)Nc1cc(C(F)(F)F)ccc1Cl (configuration not stated)
nt,4.8%,10%,nt,Cc1ccc([N+](=O)[O-])c(OCCCN2CCC(Cc3ccccc3)CC2)c1
-6%,-1.4%,-2%,-3,CCOC(=O)/C(C#N)=C/Nc1ccccc1NS(=O)(=O)c1ccc(C)c(C)c1
-1%,0.7%,-2%,nt,O=C(O)CCCn1c(=O)c2cccn2c2ccc(F)cc21
-6%,2.6%,-8%,-3,CSCCC(NC(=O)c1ccccc1)C(=O)N/N=C(\C)c1ccccc1 (configuration not stated)
-10%,-0.8%,0%,-9,Fc1ccc2c(c1)C(c1ccncc1)=NNC(c1ccc(Br)cc1)=N2
-1%,-7.3%,-30%,18,O=C(Nc1ccccc1)c1sc2cc(C(F)(F)F)cnc2c1-c1cccs1
0%,0.2%,-8%,nt,COc1ccc(CCNC(=O)c2cc3cccc(OC)c3oc2=O)cc1OC
nt,0.1%,-15%,nt,CCOc1ccc2oc(C(=O)N(C)CC(=O)Nc3ccc(OCC)c(OCC)c3)c(C)c2c1
5%,?,-27%,-6,Cc1ccc2c(c1)c1ccc3c(c1n2C)C(=O)C=CC3=O
nt,?,-3%,nt,CCOC(=O)c1c(NC(=O)COC(=O)c2nc(Cl)ccc2Cl)sc(C(=O)N(C)C)c1C
-41%,-1.5%,-4%,-2,COc1ccc(C2C3=C(CCCC3=O)Nc3ccc4ncccc4c32)cc1OC (configuration not stated)
22%,-2.3%,13%,nt,COc1cccc(NC(=O)C2CCN(S(=O)(=O)c3ccc4c(c3)CC(C)N4C(C)=O)CC2)c1 (configuration not stated)
18%,-1.2%,-12%,8,Cc1c(C(=O)NCc2cccnc2)sc2nc(-c3ccc(F)cc3)cn12
2%,0.9%,-1%,nt,CC1(C)C(=O)Nc2ccccc2N1C(=O)COC(=O)COc1ccc(C#N)cc1
-13%,3.6%,-7%,-7,NC(=O)c1ccc(NC(=O)c2cccc3c2OCCCO3)cc1

Part of the list above in order of molecular weight, ascending:
miR-21 reporter,Rango-impB inh,Rango release inh,GLA inh pH 4.5,structure
-1%,0.7%,-2%,nt,O=C(O)CCCn1c(=O)c2cccn2c2ccc(F)cc21
-5%,0.0%,-8%,14,Cc1oc2ccc(OCc3ccccc3F)cc2c1C(=O)O
2%,-2.1%,23%,5,CC(OC(=O)C1CC1)C(=O)Nc1cc(C(F)(F)F)ccc1Cl (configuration not stated)
-6%,2.6%,-8%,-3,CSCCC(NC(=O)c1ccccc1)C(=O)N/N=C(\C)c1ccccc1 (configuration not stated)
0%,0.2%,-8%,nt,COc1ccc(CCNC(=O)c2cc3cccc(OC)c3oc2=O)cc1OC

Continued:
miR-21 reporter,Rango-impB inh,Rango release inh,GLA inh pH 4.5,structure
-2%,-0.4%,-12%,nt,O=C(C1CCN(S(=O)(=O)c2cc(Cl)ccc2Cl)CC1)N1CCCC1
0%,0.6%,-7%,nt,CC(=O)Nc1ccc(N/C=C/C(=O)c2ccc(Br)cc2)cc1
-3%,-3.0%,-3%,nt,O=C(c1cc2nc(-c3ccccc3)cc(C(F)(F)F)n2n1)N1CCN2CCCC2C1 (configuration not stated)
-1%,-2.6%,-3%,-31,COCCNC(=O)CSc1nc2ccccc2c2nc(C)nn12
1%,0.5%,7%,-2,Cc1ccc(-n2cc3c(-c4cccc(Br)c4)nnc(C)c3n2)cc1
-5%,-1.0%,16%,nt,COc1ccc(OC)c(NC(=O)c2cc(-c3cc(C)ccc3O)n[nH]2)c1
-5%,1.1%,-11%,1,COc1cc2ccccc2cc1C(=O)NC(=S)Nc1cccc(C(=O)O)c1C
-17%,-1.4%,-5%,1,N#Cc1nc(-c2cccs2)oc1NCc1ccc(Cl)cc1
-2%,6.5%,8%,5,O=C(NCc1cccnc1)c1ccc(COc2cccc3ccccc23)o1
-8%,2.8%,6%,5,Cc1ccc(-c2ccc3nnc(SCC(=O)NCC4CCCO4)n3n2)cc1 (configuration not stated)
-2%,-1.0%,-8%,5,COc1ccc(C2=NNC(c3cccnc3)=Nc3ccccc32)cc1
-1%,-2.9%,3%,7,O=C(NN1C(=O)c2ccccc2C1=O)C1C2CCCCC21 (configuration not stated)
nt,3.1%,-15%,nt,Nc1cc(C(=O)OCC(=O)N2CCC(Cc3ccccc3)CC2)ccc1Cl
-30%,2.3%,28%,3,Cc1cc(N/C=C2\CCCCC2=O)no1
3%,?,?,9,Cn1c(-c2c(N)n(CCCc3ccccc3)c3nc4ccccc4nc23)nc2ccccc21
-31%,-0.3%,-9%,nt,c1ccc(-c2ccc(CN3CCSCC3)cc2)cc1
-1%,-2.0%,-15%,-4,CCCC(=O)n1nc(-c2cccnc2)nc1N
3%,-0.5%,6%,-10,COC(=O)c1[nH]c2ccccc2c1NC(=O)c1ccccc1[N+](=O)[O-]
-2%,-1.2%,-9%,0,CCOc1ccc(NC(=O)c2c3c(nc4ccccc24)CCC3)cc1
-7%,0.7%,-6%,3,COc1ccccc1/C=C/CN1CC(C)OC(C)C1 (configuration not stated)
-2%,-6.4%,17%,1,Cc1cc(C)n(Cc2ccc(C(=O)O)cc2)n1
-3%,-1.3%,12%,-18,Cc1cc2cc(CCNS(C)(=O)=O)c(=O)[nH]c2cc1C
1%,3.7%,-8%,8,CP(=O)(COC(=O)c1ccccc1)COC(=O)c1ccccc1
-1%&-1%,-0.1%,-4%,nt,Cc1ccc(S(=O)(=O)N2CCC(Oc3ccc(-n4cnnn4)cc3)CC2)cc1
-4%,-2.5%,0%,-7,COCCNc1nc(N)c([N+](=O)[O-])c(NCCO)n1
0%,1.2%,22%,3,CCOC(=O)N1CCN(C(=O)Cn2ccc3c(OC)cccc3c2=O)CC1
12%,3.6%,-3%,-3,CCOc1ccccc1C(=O)N(CN1CCCC1=O)c1ccc(C)c(Cl)c1
-1%,-2.2%,-3%,10,Cc1nn(C)c(C)c1NC(=O)CSc1nnc(C)n1-c1ccccc1
-9%,nt,nt,-15,CO[C@H]1C=CO[C@@]2(C)Oc3c(C)c(O)c4c(O)c(c5c(nc6cc(C)ccn65)c4c3C2=O)NC(=O)C(C)=CC=C[C@H](C)[C@H](O)[C@@H](C)[C@@H](O)[C@@H](C)[C@H](OC(C)=O)[C@@H]1C
0%,-1.5%,-7%,10,O=C(NCc1ccco1)C(=S)N1CCCCC1
-42%,-2.9%,-1%,-14,c1ccc2nc(-c3nccs3)ccc2c1
nt,-1.4%,2%,nt,CCOC(=O)CSc1nnc(-c2ccc(S(=O)(=O)NCc3cccs3)cc2)o1
2%,-3.5%,-3%,-2,O=C(CCNC(=O)c1ccccc1Cl)Nc1nc(-c2ccc(F)cc2)cs1
nt,-1.2%,-10%,nt,Cc1noc(C)c1C(=O)Nc1nc(-c2ccc(F)cc2)cs1
-3%,2.7%,3%,0,O=C(O)CCCNc1ccc(S(=O)(=O)Nc2ccccc2C(=O)O)cc1C(=O)O
-2%,2.2%,7%,1,CC(=O)C1C(c2ccc(Cl)cc2)NC(=O)NC1(O)C(F)(F)F (configuration not stated)
nt,-1.9%,3%,nt,O=C(O)C1CC2C3CC(C(=O)O)C(C3)C2C1 (configuration not stated)
-3%,-0.2%,-1%,nt,Cc1ccc(N2CCN(C(=O)c3cc(COc4c(C)cccc4C)on3)CC2)c(C)c1
8%,1.8%,-15%,-2,O=C(Nc1ccc(F)cc1F)N1CCCN(c2ccc([N+](=O)[O-])cn2)CC1
12%,0.6%,0%,4,CCOC(=O)N1CCN(C(=O)c2ccccc2NC(=O)COc2ccccc2C)CC1
-5%,2.8%,0%,-8,CCCNC(=O)C1CCN(S(=O)(=O)c2ccc3nc4c(c(C(=O)O)c3c2)CCCCC4)CC1
-6%,-3.2%,5%,-3,Cc1cc(C)cc(N(CC(=O)N2CCc3ccccc32)S(=O)(=O)c2c(C)noc2C)c1
-2%,-0.6%,9%,-11,COc1ccc(Cc2nnc(NC(=O)c3ccc(Cl)c([N+](=O)[O-])c3)s2)cc1
-6%,-7.0%,9%,-8,COC(=O)c1cccc(S(=O)(=O)N(Cc2ccco2)Cc2cc3ccc(OC)cc3[nH]c2=O)c1
3%,1.2%,4%,-3,CCc1cc2c(NCC(=O)O)ncnc2s1
2%,-0.9%,0%,7,COc1ccc(C(=O)N2CCN(Cc3cn[nH]c3-c3ccc(OC)cc3F)CC2)cc1
0%,0.6%,-5%,3,Cc1nnc(SCC(=O)Nc2nccs2)[nH]c1=O
0%,?,?,-4,Cc1ccc2nc(N3CCN(Cc4nnnn4Cc4ccccc4)CC3)c(C#N)cc2c1
5%,0.4%,4%,-10,C=CCOC(=O)C1=C[C@@H](c2ccc(Br)cc2)[C@H](CCCO)[C@@H](OCC)O1
4%,2.4%,4%,nt,COc1ccc2[nH]cc(CCNC(=O)C3CCCCC3)c2c1
nt,-0.7%,-2%,nt,O=C(NCc1ccccc1)c1cccc(NC(=O)C2CCC2)c1
-4%,3.7%,-9%,4,Cc1ccc(-c2nn(CC(=O)Nc3cccnc3)c(=O)c3ccccc23)cc1
8%,-1.4%,-2%,?,COCCNC(=O)c1ccc2c(=O)n(CCOC)c(=O)[nH]c2c1
-2%,1.0%,-3%,nt,COc1ccc(C(=O)NCc2c(C)oc(C)c2C(=O)O)cc1
-1%,-0.7%,2%,-7,O=C(O)C1CC(=O)N(C2CCCCC2)C1c1ccccc1 (configuration not stated)
-1%,3.2%,-8%,3,Cn1c(=O)n(C)c2cc(S(=O)(=O)O)ccc21
1%,-2.4%,25%,nt,CCN(Cc1ccccc1)S(=O)(=O)c1cc2[nH]c(=O)c(=O)[nH]c2cc1C
nt,-3.0%,?,nt,Cc1ccc(NC(=O)COC(=O)CNC(=O)c2ccc(Cl)cc2Cl)cc1S(=O)(=O)N1CCOCC1
2%,?,?,-4,Cc1nc(SCC(=O)c2ccccc2)c(C#N)c(-c2ccco2)c1C(=O)NCc1ccco1
-6%,0.5%,-2%,-1,CCOC(=O)c1c(-c2ccccc2)csc1NC(=O)CSc1ccccc1
-9%,-3.3%,-3%,2,Cc1cc2n(n1)C(c1ccc3c(c1)OCO3)Nc1ccccc1-2 (configuration not stated)
